Source: PubChem BioAssay (National Center for Advancing Translational Sciences (NCATS))
TRPML1 inh = inhibitors of human TRPML1 channel; Q9GZU1; TRPML1-inducible cells, Ca2+ dye fluorescence, FDSS; active compounds read low; inhibition of EC80 agonist-evoked calcium signal; activity change, negative = inhibition, % (no concentration beside the values); 390,000 compounds, 0.02% hits; AID 624415; in the data active means activity change below about -50%; inconclusive means about -30% to -50%; inactive means above about -30%;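 note: stimulus is agonist 54-4 at its EC80 concentration; % is set by controls: 0 for no effect and ±100 for the full control effect; compound concentration not given in the record; the text of the record puts the active cut at -80%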
Target sequence (Q9GZU1 whole entry, looked up): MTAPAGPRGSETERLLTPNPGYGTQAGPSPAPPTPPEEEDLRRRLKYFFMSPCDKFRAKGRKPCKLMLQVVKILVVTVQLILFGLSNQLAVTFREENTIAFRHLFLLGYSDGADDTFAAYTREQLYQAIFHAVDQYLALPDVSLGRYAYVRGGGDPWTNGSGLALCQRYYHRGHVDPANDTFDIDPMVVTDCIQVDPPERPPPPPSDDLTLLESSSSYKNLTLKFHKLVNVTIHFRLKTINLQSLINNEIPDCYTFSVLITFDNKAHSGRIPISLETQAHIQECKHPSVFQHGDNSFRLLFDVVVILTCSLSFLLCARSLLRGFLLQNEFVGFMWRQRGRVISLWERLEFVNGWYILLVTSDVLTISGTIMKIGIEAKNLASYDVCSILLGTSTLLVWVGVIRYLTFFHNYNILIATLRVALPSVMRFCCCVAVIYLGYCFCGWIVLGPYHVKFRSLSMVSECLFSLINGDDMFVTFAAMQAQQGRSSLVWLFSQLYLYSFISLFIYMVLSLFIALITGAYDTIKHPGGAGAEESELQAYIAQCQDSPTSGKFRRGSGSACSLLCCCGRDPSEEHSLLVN
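Tet-induced TRPML1-DL cells loaded with Ca8 no-wash calcium dye were read kinetically on FDSS. Compound addition was followed by EC80 agonist 54-4 (4 uM final); inhibition was read over 110 s.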
TRPV1 PAM = potentiators of human vanilloid receptor 1 (TRPV1); 320,000 compounds, 0.02% hits; Q8NER1; potentiation, % at 8.33 µM; TRPV1-expressing cells, Fluo-8 calcium influx, capsaicin EC20 potentiation; host cell line not named in the record; control for the full effect not named in the record; active means potentiation above 80%; inconclusive means 30% to 80%; inactive means below 30%; note: 0% is about no effect
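TRPV1-expressing cells were cultured overnight at 35.5C and loaded with Fluo-8 calcium dye for 40 to 90 min at room temperature. After a 10 s baseline, compound was added and calcium influx was read kinetically for 3 min (ex 480/em 520 nm).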
Sfp PPTase inh = inhibitors of Bacillus subtilis Sfp phosphopantetheinyl transferase | Q9F4F7 | Biochemical Sfp PPTase activity, qHTS | Potency, µM, for inactives: max response, negative = inhibition, usual class: inhibitors | 310,000 compounds, 3.5% hits | AID 1490; active = well fitted inhibition curve with a large enough effect; inconclusive = small, poorly fitted or top-dose-only effect, or another doubt; inactive = no such curve, though single readings can be large or run the other way;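 note: the enzyme is Sfp with the accession as filed and its product quenches rhodamine fluorescence; potency is the fitted concentration of half-maximal effect; 0% = enzyme reaction without inhibitor and -100% = no enzyme wells; top concentration of the series not given in the record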
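Sfp 15 nM + cpd, 15 min RT; start w/ rhodamine-CoA 5 uM, BHQ-2-YbbR 12.5 uM (final); 50 mM Hepes pH 7.6, 10 mM MgCl2, 0.01% NP-40, 0.01% BSA; read 525/598 nm at 0 and 30 min.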
Menin-MLL FL inh = inhibitors of human menin-MLL interaction, wild-type MLL peptide | FP activity change, % at 61.4 µM | Fluorescence polarization, fluorescein-MLL peptide displacement from menin | AID 1766 | 290,000 tested, under 10 active; inconclusive = falling polarisation curve, or a change in total fluorescence; inactive = total fluorescence flat and polarisation flat or rising; no compound was filed as active; the % refers to the polarisation; negative = inhibition;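 note: % of control where 0% means no effect; inhibitors lower the polarisation; unlabelled MLL peptide was the positive control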
TRPML1 ag = agonists of human TRPML1 channel; TRPML1-expressing cells, Ca2+ dye fluorescence, FDSS; host cell line not named in the record; reference of the full effect not given here; activation, % (test concentration not listed); 410,000 compounds, 0.12% hits; in the data active = activation above about 50%; inconclusive = about 30% to 50%; inactive = below about 30%; note: 0% is about no effect; the text of the record puts the active cut at 80%
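Agonist activity was taken from a 110 s kinetic Ca2+ dye read on the FDSS after pinning compounds onto TRPML1-DL cells. The cells were seeded at 1,500/well with Tet inducer, incubated about 16 h, then dye-loaded at room temperature.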
PINK1 expr mod = modulators of PINK1 expression | PINK1 immunofluorescence, high-content cytometry, 24 h | 410,000 compounds, 0.2% hits | Potency, µM (series often up to 76.6 µM), for inactives: top-dose activation (PINK1 increase), usual class: activators; active = well fitted activation curve with a large enough effect; inconclusive = small, poorly fitted or top-dose-only effect; inactive = flat fitted curve, though single readings scatter; cell line not stated here;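 note: potency is the fitted concentration of half-maximal effect; % of control where 0% means no effect; nearly all actives have a fitted effect of over 65% in size; a mitochondrial uncoupler was the plate control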
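Cells are seeded, rested 12 hours, then given compound at five concentrations or DMSO for 24 hours. After fixation, blocking and antibody staining, PINK1 amount and mitochondrial localization are scored; CCCP serves as control.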
ClpP mod = qHTS Assay for Activators of ClpP; ATP-dependent Clp protease proteolytic subunit (Bacillus subtilis (strain 168)), P80244; purified B. subtilis ClpP, FRET peptide cleavage, 20 min; Potency, µM (top dose mostly 57.5 µM), inactives show at the highest dose activity change, negative = active; 340,000 compounds, 1.9% hits; AID 651965, 2013; active = well fitted falling curve with a large enough effect; inconclusive = small, poorly fitted or top-dose-only effect; inactive = no such curve, though single readings can be large or run the other way; note: potency is the fitted concentration of half-maximal effect; the source files actives as falling curves though it sought activators and does not explain the sign; nearly all actives have a fitted effect of over 65% in size; many hits overshoot -100%
Target sequence (P80244 whole entry, looked up): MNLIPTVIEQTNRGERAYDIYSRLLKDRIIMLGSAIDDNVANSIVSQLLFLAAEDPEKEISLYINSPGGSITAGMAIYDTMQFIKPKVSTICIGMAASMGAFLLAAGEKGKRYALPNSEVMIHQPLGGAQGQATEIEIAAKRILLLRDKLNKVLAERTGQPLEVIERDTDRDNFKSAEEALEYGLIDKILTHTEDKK
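Purified B. subtilis ClpP, 10 microg/mL final in Tris/HCl pH8 with KCl, BSA, glycerol and Tween-20, cleaved an Abz/nitrotyrosine-quenched decapeptide. Fluorescence (ex 320, em 430) was read at 0 and 20 min at room temperature. Delta was normalized to 5.8 microM ADEP and DMSO/no-enzyme controls.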
The depositor's hits bear a star; ? = inconclusive; nt = not tested or not shown; [ ] = remark or other dose.

SMILES | TRPML1 inh | TRPV1 PAM | Sfp PPTase inh | Menin-MLL FL inh | TRPML1 ag | PINK1 expr mod | ClpP mod
CC(C)(C)NC(=O)C(c1ccc(O)cc1)N(C(=O)Cn1nnc(-c2ccc(F)cc2)n1)c1ccccc1F (centres undefined) | -13.3 | 5.8 | 12.7% | 4.0 | 0.9 | 2.9% | 1.3%
Cc1csc2ncc(C(=O)Nc3cccc(C(F)(F)F)c3)c(=O)n12 | 3.3 | 3.3 | 8.2% | 2.9 | -0.3 | 0.6% | ?
O=c1ccc2cc(S(=O)(=O)N3CCN(c4ccc(Cl)cc4)CC3)ccc2o1 | -5.7 | 2.3 | 21.9% | nt | -0.2 | 6.1% | nt
O=C(CN1C(=O)NC2(CCCC2)C1=O)OCc1cc(=O)n2cc(Br)ccc2n1 | -8.7 | nt | 8.9% | 4.3 | 0.0 | -1.1% | -3.7%
Cc1ccc(NC2CCCN(C(=O)CSc3ccncc3)C2)cc1C (centres undefined) | -15.3 | -9.7 | 0.3% | nt | -0.2 | 0.0% | 0.0%
CCCCn1c(N)c(N(CCOC)C(=O)c2oc3ccc(Br)cc3c2C)c(=O)[nH]c1=O | -0.2 | nt | nt | nt | 0.2 | 3.0% | -6.4%
CC(C)Oc1ccc(CN2CCC(n3nccc3NC(=O)C3CC3)CC2)cc1 | -1.3 | -3.5 | 19.8% | nt | -0.5 | -2.0% | 0.2%
Cc1ccc(C(=O)N2CCN(S(=O)(=O)c3ccccc3[N+](=O)[O-])CC2)o1 | 7.5 | -8.3 | 6.5% | -0.6 | -0.3 | 0.2% | -1.2%
CCC1(CC)NC(=O)N(CC(=O)N2CCN(S(=O)(=O)c3cccc(F)c3)CC2)C1=O | -1.9 | 2.1 | 14.9% | nt | 0.0 | 4.5% | -0.2%
CC(=O)NCc1ccc(C(=O)CN2C(=O)NC3(CCCCC3C)C2=O)s1 (centres undefined) | 10.6 | 4.7 | nt | nt | -0.1 | 0.1% | -0.8%
C=CCSc1[nH]c(=O)cc(C)c1C(N)=O | 1.0 | 17.3 | -11.5% | -0.8 | -0.2 | 0.8% | 0.1%
O=C(OCC(=O)c1ccc(Cl)s1)c1cncc(Br)c1 | -10.5 | nt | nt | nt | -1.2 | 1.7% | 0.4%
COc1ccc(N(C)C(=O)c2ccc3nc(-c4ccccc4)c(-c4ccccc4)nc3c2)cc1 | 25.2 | -2.3 | -12.0% | 1.4 | 0.1 | 1.0% | -0.1%
O=C(CSC1=Nc2ccccc2C2=NC(Cc3ccccc3)C(=O)N12)Nc1ccccc1F (centres undefined) | -8.4 | nt | nt | nt | 0.4 | 1.6% | -12.5%
CCCCNC(=O)CSc1nnc(NC(C)=O)s1 | -2.6 | 2.9 | 22.2% | 0.4 | -1.4 | 0.5% | 1.2%
Cc1cccc(C)c1NC(=O)CNC(=O)c1ccc(N2CCOCC2)c([N+](=O)[O-])c1 | 6.8 | nt | nt | nt | -0.1 | 0.6% | -0.5%
COc1cccc(CN(C)C(=O)c2ccc(S(=O)(=O)Nc3cccc(C)c3C)cc2)c1OC | -0.2 | nt | nt | nt | 2.2 | 2.6% | 2.8%
COc1cc(Cl)ccc1OCc1cc(C(=O)N[C@H]2CCCCNC2=O)no1 | 4.1 | -1.4 | 10.5% | nt | -1.1 | 0.2% | 0.2%
CCC1CCCCN1C(=O)CCCOc1ccccc1 (centres undefined) | 6.8 | 2.5 | 3.8% | 1.4 | 0.8 | 2.1% | -0.5%
Cc1cccc(CS(=O)(=O)c2nnc([C@H](Cc3ccccc3)NC(=O)OC(C)(C)C)o2)c1 | 44.7 | -4.6 | 17.8µM* | -0.3 | 5.6 | ? | 0.6%
Cc1nc(N2CCN(S(=O)(=O)c3ccc(F)cc3)CC2)c2c(-c3cccs3)csc2n1 | 55.4 | 9.8 | 8.3% | 16.1 | 2.1 | -2.7% | nt
O=C(O)CCc1nc2cc(C(F)(F)F)ccc2n(Cc2ccccc2)c1=O | 9.3 | 2.6 | -27.4% | -3.2 | -0.9 | 4.4% | 0.0%
COc1cccc(C(=O)Nc2ccccc2)c1 | -5.8 | 10.4 | 1.1% | 2.2 | 1.7 | 3.3% | 1.5%
CCNc1nc(NCC)nc(NS(=O)(=O)c2ccc(N)cc2)n1 | 7.7 | 10.0 | -2.6% | -0.3 | 0.7 | -1.1% | -0.3%
COCCn1c(SCc2nc3scc(-c4ccc(Cl)cc4)c3c(=O)[nH]2)nnc1-c1cccc(C)c1 | 13.4 | 2.6 | 5.9% | 8.9 | 3.1 | 0.9% | -1.9%

Further records follow:
SMILES | TRPML1 inh | TRPV1 PAM | Sfp PPTase inh | Menin-MLL FL inh | TRPML1 ag | PINK1 expr mod | ClpP mod
C=CCn1cnc2c(sc3nc(C)cc(C)c32)c1=O | 15.6 | 28.7 | 25.3% | 1.8 | -1.0 | 1.1% | 1.2%
Cc1ccc(S(=O)(=O)N2CCN(C(=O)COC(=O)c3oc4ccccc4c3C)CC2)cc1 | -4.9 | 23.7 | nt | nt | 2.4 | -1.5% | nt
CCN1CCCC1CN(Cc1cc2ccc(C)cc2[nH]c1=O)C(=S)Nc1ccccc1C(=O)OC (centres undefined) | 2.9 | -5.7 | -5.1% | 4.9 | 1.2 | 1.3% | nt
CC(C)(C)c1ccc(S(=O)(=O)N2CCN(Cc3cc4c(cc3O)OCO4)CC2)cc1 | -4.9 | 1.3 | nt | nt | 3.8 | 0.4% | 0.3%
O=C1[C@H]2[C@@H](c3ccc(F)cc3)N3C(=O)N(c4cccc(F)c4)C(=O)[C@@]3(Cc3ccc(Cl)cc3)[C@H]2C(=O)N1C1CCCCC1 | 30.2 | 3.6 | nt | nt | 0.6 | -1.2% | -4.2%
COc1cc2c(cc1OC)CN(C(=O)COc1ccccc1[N+](=O)[O-])CC2 | 1.7 | 1.5 | -8.5% | -2.5 | 2.9 | 1.2% | nt
CCOC(=O)c1ccc(NC(=O)CSc2nnnn2C2CCCCC2)cc1 | 1.9 | -2.2 | 8.4% | 0.8 | -0.7 | 4.1% | 0.6%
CCSC1=N/C(=C\c2ccccc2)C(=O)N1 | -3.7 | -15.5 | -8.0% | 5.1 | -0.3 | ? | -5.5%
Cc1ccc(S(=O)(=O)N(C)CC(=O)N2CCCc3ccccc32)cc1 | 15.0 | 23.6 | 2.7% | 2.8 | 0.9 | -2.8% | -0.7%
CCN(CC)Cc1c(O)ccc2c([N+](=O)[O-])c(C)n(-c3ccc(OC)cc3)c12 | 0.4 | 1.6 | 5.7% | -5.1 | -0.5 | -2.1% | 0.6%
CCSc1nc2ccccc2c(OCc2cc(C(=O)OC)ccc2OC)c1C(=O)OC | -18.0 | nt | nt | nt | 14.7 | 7.6% | -9.0%
COc1ccc(OC)c(S(=O)(=O)Nc2c(C)n(C)n(-c3ccccc3)c2=O)c1 | 23.8 | -3.9 | 26.8% | -8.4 | 0.1 | 0.7% | nt
COc1ccc(NC(C)=O)cc1S(=O)(=O)NCCc1ccccn1 | -9.4 | -3.0 | nt | nt | 1.0 | 6.7% | 0.9%
Cc1cc(C)cc(N(C(=O)c2csnn2)C(C(=O)NC2CCCCC2)c2ccncc2)c1 (centres undefined) | -6.4 | -7.3 | 13.6% | nt | -1.0 | 0.8% | 0.0%
Cc1ccc(-c2cnc(-c3ccccc3C(=O)O)o2)cc1 | 9.9 | -2.0 | 18.1% | 4.4 | 0.2 | 4.2% | nt
O=C(N/N=C/c1ccsc1)c1cc2ccccc2o1 | 2.0 | -16.6 | -6.0% | 2.0 | -0.7 | 0.8% | 0.0%
NC(=S)N=Nc1c(O)n(CCCl)c2ccccc12 | 5.0 | -4.8 | -25.1% | -1.0 | 0.2 | 1.4% | nt
O=C(N/N=C/c1ccccc1Cl)C1CC1 | 11.9 | 13.3 | 2.9% | 0.8 | 0.7 | -0.9% | -1.7%
COCCNC(=O)NC(=O)COC(=O)C1(c2ccc(Cl)cc2)CC1 | 16.3 | 4.3 | 21.8% | -1.2 | -0.8 | -1.1% | nt
CN1CCN(C(=O)C2CCN(S(=O)(=O)c3ccc(F)cc3)CC2)CC1 | -11.6 | 1.3 | 4.5% | -2.7 | 0.3 | -0.1% | nt
O=C(NCCc1c[nH]c2ccccc12)C(F)(F)F | 5.1 | ? | -9.3% | 18.8 | 0.8 | -3.2% | -1.9%
CCCC(c1nnnn1CC1CCCO1)N1CCN(c2nc3ccccc3s2)CC1 (centres undefined) | 3.3 | -8.1 | -8.5% | -16.8 | 3.3 | 1.7% | -0.5%
CCN1CNC(=S)N(c2ccccc2C)C1 | 5.3 | -0.9 | 2.1% | 0.4 | -0.2 | 0.5% | -0.7%
O=C1N[C@@H](Cc2c[nH]c3ccccc23)COC(=O)[C@@H](Cc2ccc(F)cc2)C/C=C\C[C@H]1CC(=O)N(CCO)Cc1ccccc1 | 7.2 | nt | nt | nt | 0.0 | 1.5% | -4.4%
Nn1c(SCc2ccc(F)cc2)nnc1-c1ccncc1 | 7.1 | 15.2 | 7.6% | -3.3 | 1.2 | 0.0% | nt

Next section
SMILES | TRPML1 inh | TRPV1 PAM | Sfp PPTase inh | Menin-MLL FL inh | TRPML1 ag | PINK1 expr mod | ClpP mod
O=C(NCc1cccs1)C12CC3CC(CC(C3)C1)C2 | 12.5 | -9.7 | 1.5% | -6.0 | 1.2 | -1.1% | nt
O=C(O)CN1C(=O)/C(=C\C(Br)=C\c2ccccc2)SC1=S | -15.7 | -12.4 | 56.2µM* | ? | 0.1 | 10.4% | 6.4%
CN1CCN(c2ncc3nc(-c4cc(F)cc(F)c4)c(=O)n(C)c3n2)CC1 | nt | nt | 11.5% | -1.4 | nt | -1.1% | nt
COc1cc(C(C)=O)ccc1OC(=O)C(C)N1C(=O)c2ccccc2C1=O (centres undefined) | -1.3 | -8.0 | 2.0% | -1.6 | -0.7 | -2.0%[38.3 µM] | 0.0%
CC1CC(=O)N(CC(=O)N2CCCC2)c2ccccc2S1 (centres undefined) | 1.9 | 2.9 | -2.6% | 2.8 | 0.7 | 7.4%[38.3 µM] | 0.6%
CCOc1ccc(Nc2nc(N3CCCCC3)nc(N3CCCCC3)n2)cc1 | 8.9 | -6.6 | 3.7% | 2.8 | 0.1 | 2.5%[38.3 µM] | 0.2%
